# Mtb hypoxia inh – inhibitors of hypoxia-regulated fluorescent reporter in Mycobacterium tuberculosis. M. tuberculosis hypoxia-regulated fluorescent reporter, fluorescence. fluorescence inhibition, % (no concentration beside the values). actives 0.1% (n = 300,000). AID 1159583;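 active = 35 to 45% if threefold the growth effect, above 45% if 1.5-fold the growth effect; inactive = the rest, general growth blockers included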;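 note: wells of about 50 µL received 100 nL stock; 0% = vehicle wells and 100% = reference inhibitor wells; whole bacteria with a GFP reporter of the hypoxia response; strong numbers were not always called active; many hits fall short of the cut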
# Autofluor counter – flagged as autofluorescent in microsphere protease counterscreen; compound autofluorescence counterscreen, microsphere flow cytometry; stronger effect = higher value; fluorescence intensity (test concentration not listed); actives 3.1% (n = 360,000); AID 624483;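 active = at least 3 SD above the mean of all compounds, about 16000 in these data; inconclusive = too few beads counted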;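 note: 100 nL of 1 mM stock went into each well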
# BJeLR lethal – BJeLR cell viability loss; BJeLR (HRASV12) viability, CellTiter-Glo ATP luminescence, 48 h; reference of the scale not given here; inhibition, % (test concentration not listed); AID 1554; actives 0.17% (n = 300,000);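 active = replicate mean above 50%; inconclusive = above 50% but judged a plate artefact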;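 note: 50 nL library stock added to about 25 µL; numbers are from one replicate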
# Sa RN4220 lethal – S. aureus RN4220 growth inhibition. actives 0.33% (n = 330,000). OD600, 16 h. AID 1259311. inhibition, % (concentration not given with the values);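 active = z-score of -3 or lower and OD600 up to 0.18 on both plates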;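 note: plate controls were untreated cells for no effect and reference antibiotic for full effect; stock transfer was 100 nL into about 80 µL; one replicate is shown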
# ugtP null kill – compounds lethal to S. aureus RN4220 ugtP deletion mutant; OD600 growth, 16 h; some inactives read as strong as hits; growth inhibition, % (concentration not given with the values); actives 0.54% (n = 330,000); AID 1259309;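 active = z-score under -3 and OD600 up to 0.15 on both plates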;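 note: plate controls were untreated wells for no effect and antibiotic for full effect; wells of about 80 µL received 100 nL stock; the first replicate is given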
# PrP 5UTR inh – inhibition of PrP 5' UTR reporter expression | actives 0.35% (n = 340,000) | AID 488862 | cell-based PrP 5' UTR mRNA reporter, plate reader | inhibition, % (concentration not given with the values);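 active = every replicate at 50% or more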;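 note: 0 = median of the neutral control wells; tested in H4 reporter cells; numbers are from one replicate; inactives centre near -14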
# Mtb hypoxia inh growth – second read-out of Mtb hypoxia inh, no call of its own (marks repeat the call); growth inhibition, %; measured here: M. tuberculosis growth (absorbance);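 0% = vehicle and 100% = reference antibiotic; read after six days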
# * hit, by the source's call; ? = inconclusive; . = no result given. Random draw from the library, and some 4.1% of all compounds hit somewhere here.
SMILES,Mtb hypoxia inh,Mtb hypoxia inh growth,Autofluor counter,BJeLR lethal,Sa RN4220 lethal,ugtP null kill,PrP 5UTR inh
COc1ccc(C(=O)CCc2nc3ccccc3s2)cc1,5,4,10664,6,7.6,3,-21
O=C(Cc1ccccc1)N/N=C/c1cccc([N+](=O)[O-])c1,.,.,2383,0,.,.,-21
COc1cc(CNC(C)(C)C)ccc1OCC(=O)NC(C)(C)C,-8,-4,3615,4,3.8,3,-7
CC1CC(=NNC(=O)c2ccc([N+](=O)[O-])cc2)CC(C)(C)C1 (stereo unspecified),1,-7,.,.,4.4,-3,.
CCC(COC(=O)NC)NC(=O)Oc1ccccc1 (stereo unspecified),13,13,2428,-4,8.2,7,-8
CCOC(=O)C1CCN(C(=O)COC(=O)/C=C/c2cccc(OC)c2OC)CC1,1,12,3461,.,3.6,5,-6
CSc1ncccc1C(=O)N(C)CC(=O)Nc1ccc(Cl)cc1,.,.,3841,-5,.,.,-8
CCN(CC(=O)Nc1ccc(NC(C)=O)cc1)C(=O)CN1C(=O)NC2(CCCC2)C1=O,10,-5,?,10,2.6,1,-12
CC(OC(=O)c1cc2ccccc2cc1O)C(=O)Nc1ccc(S(N)(=O)=O)cc1 (stereo unspecified),1,0,3556,-1,5.2,11,-18
CC1CN(C(=O)C2CCCCC2)C(C)CN1C(=O)C1CCCCC1 (stereo unspecified),1,9,9780,-7,5.2,2,0
COc1ccc(C(=O)C2CN(C)CC2C(=O)c2ccc(OC)cc2)cc1 (stereo unspecified),.,.,2194,-4,4.0,8,-16
CC(C)[C@H](NC(=O)N1CCn2c1nc1ccccc12)C(=O)NCc1ccco1,6,7,4964,3,2.6,0,0

# A draw from above in order of formula weight, falling:
SMILES,Mtb hypoxia inh,Mtb hypoxia inh growth,Autofluor counter,BJeLR lethal,Sa RN4220 lethal,ugtP null kill,PrP 5UTR inh
CC(OC(=O)c1cc2ccccc2cc1O)C(=O)Nc1ccc(S(N)(=O)=O)cc1 (stereo unspecified),1,0,3556,-1,5.2,11,-18
CC(C)[C@H](NC(=O)N1CCn2c1nc1ccccc12)C(=O)NCc1ccco1,6,7,4964,3,2.6,0,0
CC1CN(C(=O)C2CCCCC2)C(C)CN1C(=O)C1CCCCC1 (stereo unspecified),1,9,9780,-7,5.2,2,0
CC1CC(=NNC(=O)c2ccc([N+](=O)[O-])cc2)CC(C)(C)C1 (stereo unspecified),1,-7,.,.,4.4,-3,.
CCC(COC(=O)NC)NC(=O)Oc1ccccc1 (stereo unspecified),13,13,2428,-4,8.2,7,-8

# (continued)
SMILES,Mtb hypoxia inh,Mtb hypoxia inh growth,Autofluor counter,BJeLR lethal,Sa RN4220 lethal,ugtP null kill,PrP 5UTR inh
Cc1ccc(/C=C2\SC(=S)N(CCC(=O)Nc3ccc(O)cc3)C2=O)cc1,-13,1,3540,-4,3.0,1,-33
O=C(NCCc1ccco1)C(=O)NCC1CCCN1S(=O)(=O)c1ccccc1 (stereo unspecified),6,-1,?,10,-0.2,1,-11
COc1cc2ccccc2cc1C(=O)Nc1ccc(Cc2ccncc2)cc1,10,21,21333*,0,22,-13,-50
Cc1ccc(O)c(NC(=S)NC(=O)c2ccccc2Cl)c1,-18,8,4657,-5,2.2,-6,-31
Cc1cc(OC(=O)c2ccc(S(=O)(=O)N3CCOCC3)cc2)c([N+](=O)[O-])c(=O)[nH]1,8,-9,2587,.,2.0,2,-15
COc1ccccc1OC(=O)c1cc(Cl)nc2ccccc12,-3,-5,10920,-1,0.4,1,-7
COc1ccc(-c2cc(C(F)(F)F)nc(N3CCCCC3)n2)cc1OC,-3,-9,4156,1,-1.7,82,-8
O=C(CSc1n[nH]c(-c2ccncc2)n1)NC1CCS(=O)(=O)C1 (stereo unspecified),-10,-6,9112,2,-0.2,-3,-11
COc1cccc(CN2CCN(S(=O)(=O)c3ccc(Br)cc3)CC2)c1,9,9,10068,3,2.3,-4,-4
CCOC(=O)CSc1nnc(-c2ccc(NS(=O)(=O)c3ccc(C)cc3)cc2)o1,4,7,20276*,4,0.3,13,-1
COc1ccc(/C=N/Nc2cc(C)nc(N)n2)cc1,.,.,9496,4,.,.,-31
O=C(CC(=O)N/N=C/c1ccc(O)cc1)N/N=C/c1ccc(O)cc1,.,.,4845,-4,.,.,-22
CN(C)C(/C=C/Nc1ccc(F)cc1)=C(C#N)C#N,9,4,9220,1,2.7,4,-36
Clc1ccc(SCc2csc(N3CCOCC3)n2)cc1,-3,7,5708,10,4.0,11,-20
Cc1ccc(C(=O)Nc2nc(=O)n(C(=O)CC(C)C)s2)cc1,-1,0,10316,-14,-1.9,-9,-50
CC=C(C)C(=O)Nc1cccc(C2=NOC3(C2)CC(C(N)=O)N(C(=O)COc2ccc(Cl)cc2)C3)c1 (stereo unspecified),8,9,.,.,1.1,-11,.
O=C(NCc1ccccc1CN1CCCC1)c1cccc(N2CCCC2=O)c1,1,1,14451,.,4.8,2,-18
COc1ccc(S(=O)(=O)N/N=C(/C)c2ccncc2)c(OC)c1,.,.,?,0,.,.,13
CN(CC(=O)O)c1ccc(S(=O)(=O)N2CCOCC2)cc1[N+](=O)[O-],4,7,4132,5,4.2,6,-25
FC(F)(F)c1nc2ccccc2nc1N/N=C/c1c(Cl)cccc1Cl,.,.,2796,1,.,.,-29
COCCCNC(=O)Cn1c(=O)n(CCCCCC(=O)NCc2ccc3c(c2)OCO3)c(=O)c2sccc21,0,2,4429,-11,3.0,11,-19
O=c1cc(N2CCN(Cc3ccccc3)CC2)[nH]c(=O)n1Cc1ccc(F)cc1,-2,1,8388,-8,2.0,5,-8
CCOc1ccc(N(CC(=O)N2CCN(c3ccccc3OC)CC2)S(=O)(=O)c2ccc(F)cc2)cc1,13,5,5124,-9,7.2,2,-5
O=C(CN1CCN(C(=O)c2ccc(-c3nc4ccccc4s3)o2)CC1)Nc1ccccc1Cl,7,-5,4927,.,7.1,-3,-43
CCc1nnc(NC(=O)CSc2nnc(-c3ccc(S(=O)(=O)N(CC)CC)cc3)n2CC)s1,15,-1,8704,9,3.2,-1,-28
CCCCOCCCNC(=O)CN1C(=O)c2ccccc2C1=O,7,6,10987,5,3.4,-1,-17
CC(C)OC(=O)Cn1cc(C#N)c2ccccc21,8,4,3182,-2,-1.1,2,-1
Cc1ccc(S(=O)(=O)Cc2ccc(C(=O)N3CCC(C(N)=O)CC3)o2)cc1,-4,-12,4866,-5,-2.5,0,-2
Cc1ccc(SCc2cc(=O)[nH]c(N=C(N)Nc3ccccc3Sc3ccccc3)n2)cc1,3,2,.,.,4.9,-16,.
C/C(C=NNC(=O)Cn1nccc1C)=C\c1ccc(C(C)C)cc1,1,2,.,.,0.1,-21,.
CCOC(=O)C(NC(=O)CC)(Nc1ccccc1)C(F)(F)F (stereo unspecified),6,9,2197,11,5.6,10,-21
COc1ccc(N2C(=O)CSC2c2ccncc2)cc1 (stereo unspecified),-72,-5,9304,3,0.1,-2,-20
CCOC(=O)C1C(C(=O)NN)C1C(=O)Nc1ccccc1 (stereo unspecified),2,6,2515,7,2.2,4,-16
Cc1ccc(Nc2nc(-c3ccc(S(=O)(=O)N4CCOCC4)cc3)cs2)cc1,3,1,8068,6,3.9,2,.
Cc1nn(-c2ccccc2)c(C)c1C(=O)N1CCN(S(=O)(=O)c2ccccc2)CC1,-3,-3,.,.,2.3,2,6
CC1(C)CC2CC(C)(CN2S(=O)(=O)c2ccc(C(=O)Nc3ccc(Cl)c(S(=O)(=O)N4CCOCC4)c3)cc2)C1 (stereo unspecified),5,-4,8351,2,-1.1,-17,-25
COc1ccc(CCNC(=O)c2ccc3c(c2)SC2=NS(=O)(=O)CCN23)cc1,9,3,4404,1,6.4,6,-12
CC(=O)Nc1ccc(NC(=O)C2CCCN(c3nnc(-n4cccc4)s3)C2)cc1 (stereo unspecified),5,5,2596,5,7.2,-5,-4
Cc1ccc(N2C(=O)C3C4C=CC(CC4)C3C2=O)cc1Cl (stereo unspecified),4,8,3973,-5,6.2,4,-12
CN(C(=O)c1ccc(NC(=O)Cc2ccc(NC(=O)C3CCN(C(=O)C4CCCCC4)CC3)cc2)cc1)C1CCCC1,-6,5,3673,.,2.6,2,-35
OC(CN1CCC(Cc2ccccc2)CC1)C(F)(F)F (stereo unspecified),13,3,3633,-4,0.7,-3,-7
CN(c1ccccc1)S(=O)(=O)c1ccc(NC(=O)c2ccccc2)cc1,-6,11,2050,-9,0.4,-12,-27
CC1(C)CC(NC(=O)Cc2ccccc2)CC(C)(C)N1,-8,-2,3791,-6,3.3,1,-32
CCCCCC(=O)N1CC2(C)CN(C(=O)CCCCC)CC(C)(C1)C2=O,.,.,3494,-1,0.7,3,-11
COc1ccc(CCNC(=O)c2nc3ncccn3n2)cc1OC,.,.,5314,5,2.0,2,-17
S=C(NCCc1ccccc1)N1CCN(C(=S)NCCc2ccccc2)CC1,-2,2,.,.,1.7,-1,-21
O=c1cc(O)c2ccccc2n1Cc1ccccc1Cl,-3,2,3995,11,1.4,5,-6
CCCn1c(N)c(Sc2ccccc2)c(=O)n(CCC)c1=O,6,5,19729*,11,3.3,3,-7
COC(=O)c1ccc(C2Nc3cccc4cccc(c34)N2)cc1,19,8,4171,13,5.9,11,-12
COc1c2n(C)ccc3c-2n(c(=O)c1=O)c1ccccc31,.,.,4948,-5,7.3,0,-24
C=CC(=O)Nc1ccc(Br)cc1,.,.,2348,0,0.8,2,-1
Cc1ccc2ncnc(NCCCCCC(=O)O)c2c1,3,4,4274,10,7.8,2,-2
Cc1nn(C)c(C)c1S(=O)(=O)N1CCC(C(=O)NCC2COc3ccccc3O2)CC1 (stereo unspecified),.,.,5790,0,3.7,9,-12
CC(=O)c1c(C)[nH]c(C(=O)Nc2cccnc2)c1C,2,8,19908*,2,5.4,-8,-22
COCCn1c(SCC(=O)NCc2ccc3c(c2)OCO3)nnc1-c1c[nH]c2ccccc12,6,7,5336,3,2.1,-4,-10
CN(C)CCN(CC1CCCN(Cc2ccccc2F)C1)C(=O)Cc1c(F)cccc1F (stereo unspecified),-9,8,4316,-11,5.3,9,-9
COCCn1nnnc1C(c1ccc(OC)cc1)N1CCN(c2ccccc2F)CC1 (stereo unspecified),.,.,4783,-7,-1.2,7,-6
Cc1cccc(NC(=S)N(C)C)c1C,7,11,4992,0,0.5,5,-20
Cc1c(OC(C)C(=O)NC2CC(C)(C)NC(C)(C)C2)ccc2c3c(c(=O)oc12)CCC3 (stereo unspecified),9,-2,5507,-5,3.0,10,-10
CCCC(=O)Nc1c2c(nn1-c1cccc(C)c1C)CS(=O)(=O)C2,0,-1,3440,-8,0.7,0,-19
# (listing goes on)
SMILES,Mtb hypoxia inh,Mtb hypoxia inh growth,Autofluor counter,BJeLR lethal,Sa RN4220 lethal,ugtP null kill,PrP 5UTR inh
O=[N+]([O-])c1ccc(S(=O)(=O)N/N=C/c2ccco2)cc1,.,.,2600,-2,.,.,2
CN(C)C(=O)CC12CC3CC(C1)CC(CC(=O)N(C)C)(C3)C2,8,7,2369,-14,-1.6,-8,-9
CCCCn1c(N)c(N(CC(C)C)C(=O)c2ccc(S(=O)(=O)N(CC)c3ccccc3)cc2)c(=O)[nH]c1=O,6,8,?,-10,-2.2,-1,-16
COc1ccc(C(=O)N2CCN(c3ccc(NC(=O)c4ccco4)cc3)CC2)cc1,12,2,5779,1,3.7,7,-2
Cc1ccccc1C(=O)N1CCN(c2ccc(NC(=O)c3ccco3)cc2)CC1,1,5,3805,1,1.1,6,-4
CCc1c(C)c2ccc(OCC(=O)N(C)C)c(C)c2oc1=O,8,12,21643*,1,3.4,-4,-46
COc1ccccc1NN=C1COC(C)(C)CC1=O,0,11,.,.,7.0,0,.
CC(=O)c1ccc(N(CC(=O)NC2CCCC2)C(=O)c2ccc(C)s2)cc1,0,4,4009,-3,2.4,6,-16
COc1ccc(N2C(=O)CCC(C(=O)O)C2c2ccccc2OC)cc1 (stereo unspecified),-14,11,4945,13,-3.1,-12,-15
COc1cc(OC)c(S(=O)(=O)N2CCN(C(=O)c3ccccc3F)CC2)cc1NC(C)=O,4,2,3234,6,2.3,9,-65
CC1CN=C(NC2CCCCC2C)S1 (stereo unspecified),11,2,3325,2,-14,3,-8
CC(C)CCCC(C)NC(=O)c1cc(S(=O)(=O)N2CCCCC2)ccc1N1CCOCC1 (stereo unspecified),6,6,8736,.,4.1,4,-9
COc1ccccc1-n1c(=S)[nH]c2c(sc(=S)n2-c2ccccc2C)c1=O,5,8,4010,-8,6.8,6,-27

# Compound activity (PubChem)
